Screens from PubChem.
GCN5L2 inh = inhibitors of human GCN5L2 histone acetyltransferase; Q92830; GCN5L2 HAT assay, ThioGlo1 CoA-SH fluorescence; Potency, µM (highest dose often 58.9 µM), for the others: at the highest dose activity change, negative = inhibition, actives largely listed as inhibitors; 390,000 tested, 0.21% active; AID 504327; active = well fitted inhibition curve with a large enough effect; inconclusive = small, poorly fitted or top-dose-only effect, or another doubt; inactive = no such curve, though single readings can be large or run the other way
Target sequence (Q92830 whole entry, looked up): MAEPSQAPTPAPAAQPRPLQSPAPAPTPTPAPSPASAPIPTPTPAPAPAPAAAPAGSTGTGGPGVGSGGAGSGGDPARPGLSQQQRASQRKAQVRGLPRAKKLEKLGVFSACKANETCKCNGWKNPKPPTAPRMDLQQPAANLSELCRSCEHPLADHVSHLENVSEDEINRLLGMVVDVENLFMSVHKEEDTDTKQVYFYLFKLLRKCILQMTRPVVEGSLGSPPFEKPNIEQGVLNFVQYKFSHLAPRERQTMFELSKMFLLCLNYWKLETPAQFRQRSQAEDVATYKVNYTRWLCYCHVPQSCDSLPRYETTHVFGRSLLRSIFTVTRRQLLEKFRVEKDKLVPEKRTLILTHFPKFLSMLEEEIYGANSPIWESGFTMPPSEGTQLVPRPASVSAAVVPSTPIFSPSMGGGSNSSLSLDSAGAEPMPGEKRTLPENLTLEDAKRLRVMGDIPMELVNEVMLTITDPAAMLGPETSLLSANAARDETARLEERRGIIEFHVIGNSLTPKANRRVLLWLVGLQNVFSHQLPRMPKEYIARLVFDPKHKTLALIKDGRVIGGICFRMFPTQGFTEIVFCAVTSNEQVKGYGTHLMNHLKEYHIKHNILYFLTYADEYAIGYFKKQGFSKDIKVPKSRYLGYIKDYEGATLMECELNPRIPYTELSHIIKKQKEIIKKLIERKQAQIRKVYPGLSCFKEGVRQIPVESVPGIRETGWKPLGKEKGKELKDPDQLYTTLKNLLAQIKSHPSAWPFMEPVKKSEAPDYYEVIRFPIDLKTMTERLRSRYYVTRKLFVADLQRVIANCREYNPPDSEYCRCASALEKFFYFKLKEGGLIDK
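GCN5L2 (20 nM) in 50mM HEPES pH 7.5, 0.1mM EDTA, 0.01% Tween-20 preincubated 15 min with compounds at room temperature. Reaction started with H3(1-25) 75uM, acetyl-CoA 70uM, ThioGlo1 50uM; CoA-thiol fluorescence (Ex340/Em540) read at 0 and 20 min.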
* marks the source's active call; other numbers are inactive results; u = inconclusive. % is scaled to controls: 0 for no effect and ±100 for the full control effect; potency is read from the fitted curve at half-maximal effect. The list is partial; most or all hits stand in other tables.

mol,GCN5L2 inh
O=C(CN1CCN(c2ccc(Cl)cc2)CC1)NCc1cccs1,-2.1%
COc1ccc(CN2C(=O)CSC2c2ccccn2)cc1 (centres undefined),-4.4%
Cc1ccc(-c2nnc(Nc3ccc4c(c3)OCO4)c3ccccc23)cc1S(=O)(=O)NC(C)C,-18.7%
O=C(Nc1cccc(-c2cn3ccccc3n2)c1)C1CC1,4.4%
O=C(O)c1ccc(Oc2cccc([N+](=O)[O-])c2)cc1C(=O)O,-10.9%
CN1CCC(OC(=O)C23CCC(C)(C(=O)O2)C3(C)C)CC1 (centres undefined),1.9%
Cc1ccc(C)c(NC(=O)C(=O)NCC2CCCN2S(=O)(=O)c2cccs2)c1 (centres undefined),-4.2%
COc1cc(C(=O)Nc2ccc([N+](=O)[O-])cn2)cc(OC)c1OC,-1.3%
O=S(=O)(NCc1ccco1)c1ccc(S(=O)(=O)N2CCCC2)cc1,u
COC(=O)Nc1nc2ccc(-c3n[nH]c(=O)c4ccccc34)cc2[nH]1,-3.4%
Cc1csc(NC(=O)CSc2nnc3ncccn23)n1,-5.7%
COc1ccc(NC(=O)CCn2cnnn2)cc1,1.7%
Cc1ccc(CC2CC(=O)N(CCc3ccc4c(c3)OCO4)C2=O)cc1 (centres undefined),-6.2%
CCCCNS(=O)(=O)c1ccc2nc(SCC(=O)Nc3cccc(F)c3)[nH]c2c1,-4.5%
O=C(Nc1nnc(-c2ccc(Cl)cc2)o1)c1ccc(N2C(=O)CCC2=O)cc1,0.6%
Cc1cccc(N2CCN(Cc3nc(-c4ccc(F)cc4F)oc3C)CC2)n1,4.6%
CCOc1ccc(C(=O)CN2CCN(S(=O)(=O)c3ccc(Cl)cc3)CC2)cc1,0.0%
CCc1ccc(C(=O)CN2C(=O)NC(C)(CCc3ccccc3)C2=O)cc1 (centres undefined),-2.7%
CC(C)(C)c1ccc(CSc2nnc(-c3ccccc3NC(=O)c3ccccc3)o2)cc1,0.6%
COc1cc(C(=O)NNC(=O)c2ccc(S(=O)(=O)N3CCCCC3)cc2)cc(OC)c1OC,2.9%

(cont.)
mol,GCN5L2 inh
COc1ccc(CC2(CO)CCN(Cc3ccc(NC(C)=O)cc3)CC2)cc1,0.6%
COc1ccc(CSc2nc(C)cc(=O)[nH]2)cc1,-0.2%
CC(C)(C)c1ccc(OCc2ccc(C(=O)Nc3cccnc3)o2)cc1,-10.0%
Cc1cccc(C(=O)N2CCCC(Nc3ccc(C(C)C)cc3)C2)n1 (centres undefined),-3.1%
CCOc1ccc(OCC)c(NC(=O)C(NS(=O)(=O)c2ccc(Br)s2)c2ccccc2)c1 (centres undefined),-13.7%
COc1ccc(-c2nnc(NC(=O)c3ccc4c(c3)OCCO4)o2)cc1,-3.4%
COc1ccc(CNC(=O)CCn2nc(C)c3c(C)n(-c4ccccc4)nc3c2=O)cc1OC,-11.7%
COc1nc(-c2ccccc2)cc(-c2ccccc2)n1,-3.7%
NC1=NC2(CCCCCC2)n2c(nc3ccccc32)N1,-10.1%
COc1ccc(S(=O)(=O)N2CCOCC2)cc1NC(=O)Cn1nnc2ccccc2c1=O,-3.9%
CC1(C)CC(NC(=O)c2sc3cc(Cl)ccc3c2Cl)CC(C)(C)N1,20.1%
Cc1ccc(S(=O)(=O)NCC2(c3ccccc3)CCOCC2)cc1,-1.0%
O=C(NC1CC(=O)N(c2cccc(F)c2)C1)C1CC1 (centres undefined),5.8%
Cc1cccc(OCC(=O)NCCCNC(=O)c2cccnc2)c1,-6.8%
CCc1nnc(NS(=O)(=O)c2ccc(NC(=O)c3cccc([N+](=O)[O-])c3)cc2)s1,-6.9%
N/C(=N\OC(=O)Cc1ccccc1)c1cccnc1,-1.4%
COc1ccc([N+](=O)[O-])cc1NC(=O)CCc1ccccc1,u
Cc1ccc(C(CC(=O)c2ccco2)SCCO)cc1 (centres undefined),u
CCOc1ccc(NC(=O)c2cc3c(C)nc4ccccc4c3o2)cc1,-7.7%
CCOC(=O)Nc1ccc(Cc2ccncc2)cc1,9.0%

Later entries
mol,GCN5L2 inh
O=C(Cc1ccccc1)c1c[nH]c(C(=O)O)c1,11.8%
Cn1c(NNC(=O)C2CCCCC2)cc(=O)n(C)c1=O,-8.2%
Cc1ccc(OCCNC(=O)C(=O)NCc2ccco2)cc1,-2.6%
COc1cc(C(=O)Cc2nc3ccccc3n2C)cc(OC)c1OC,-9.9%
CCOc1cc(/C=N/NC(=O)COc2ccccc2C)ccc1OC(=O)c1cccs1,-15.0%
COc1cccc(C(=O)Nc2c3c(nn2-c2ccc(Cl)cc2)CS(=O)(=O)C3)c1OC,-6.0%
Cc1ccc(NC(=O)C2CCN(S(=O)(=O)c3ccc4c(c3)NC(=O)CO4)CC2)cc1C,-12.9%
CCOC(=O)C1C(=O)NCC1c1ccccc1 (centres undefined),-0.5%
CCOc1ccc(C2c3c(oc4ccccc4c3=O)C(=O)N2CCCN2CCOCC2)cc1 (centres undefined),-16.1%
Cc1cc(C)n2cc(CSc3nc4ccccc4s3)nc2n1,-9.3%
O=C(C1COc2ccccc2O1)N1CCN(c2ccc(F)cc2)CC1 (centres undefined),1.9%
Cc1cccc(-c2nc(CS(=O)CC(=O)NC3CCCC3)c(C)o2)c1 (centres undefined),-21.5%
COc1ccc(CNC(=O)COCc2cc(-c3ccc4c(c3)OCO4)on2)cc1,-0.8%
O=C(c1ccc(Cl)cc1)c1oc2ccccc2c1CS(=O)c1ccc(Cl)cc1 (centres undefined),21.3%
O=C(COC(=O)c1ccc2c(c1Cl)C(=O)c1ccccc1C2=O)NC1CCCCC1,-6.6%
CN(CC(=O)Nc1ccc(F)c(F)c1F)C(=O)C1=NN(c2ccccc2)C(=O)CC1,0.0%
COc1cc(/C=C/C(=O)N2c3ccccc3Sc3ccc(C(F)(F)F)cc32)cc(OC)c1OC,-9.9%
COc1ccc(/C=C2/SC(=S)N(CCC(=O)N3CCN(C)CC3)C2=O)cc1,-4.0%
COc1ccc(-c2nn(-c3ccccc3)cc2/C=C/C(=O)OCC(=O)Nc2ccc(C#N)cc2)cc1,-16.0%
O=C(Cn1ncc2c3ccccc3n(Cc3ccc(Cl)cc3)c2c1=O)NCc1cccs1,-8.2%

Carrying on.
mol	GCN5L2 inh
COc1cccc(NC(=S)NC(=O)Cc2ccc(Cl)cc2)c1	-4.0%
O=[N+]([O-])c1cc(-c2nnc(Nc3ccccc3)c3ccccc23)ccc1N1CCOCC1	3.2%
COc1cc2c(cc1OC)CN(C(=S)NC(=O)c1ccccc1)CC2	-0.6%
Cc1nn(-c2ccccc2)c(C)c1NC(=O)COC(=O)c1cccc(OC(F)F)c1	-0.8%
CC(C)C1NC(C(=O)O)Cc2c1[nH]c1ccccc21 (centres undefined)	-9.6%
COc1cccc(NC(=O)C2CCN(C(=O)[C@@H]3Cc4ccccc4CN3)CC2)c1	-8.7%
COc1cc(/C=C/c2nc(C#N)c(NC(C)c3ccccc3)o2)cc(OC)c1OC (centres undefined)	-7.4%
CCN(C(=O)Cc1nc(N)n[nH]1)C1(C(=O)Nc2ccccc2)CCCCC1	0.0%
CCOc1ccc(CN(CCC#N)C(=S)NC(=O)c2ccccc2)cc1	-0.9%
COC(=O)Cc1ccc(NC(=S)N2CCCC(C)C2)cc1 (centres undefined)	-1.9%
COc1c(/C=N/NC(=O)c2ccncc2)c(CCN(C)C(C)=O)cc2c1OCO2	-4.2%
COc1cccc(NC(=O)COC(=O)c2c(F)cccc2Cl)c1	2.2%
CCOC(=O)Cn1c(=O)c2c(nc3n2CC(C)CN3Cc2ccccc2)n(C)c1=O (centres undefined)	-5.6%
COCCNC(=O)c1ccc(N2CC3CC(C2)c2cccc(=O)n2C3)c(NC(=O)c2c(F)cccc2F)c1 (centres undefined)	-4.5%
O=C(Nc1ccccc1F)c1ccn[nH]1	-9.8%
CC(C)N(C(=O)Cn1c(-c2ccccc2Cl)nc2ccccc21)c1ccccc1	-4.8%
CSc1ccccc1Sc1cc(C(=O)O)c2ccccc2n1	12.1%
c1ccc(-c2c[n+]3c(n2-c2ccccc2)CCC3)cc1	1.4%
COc1cccc(-n2cc(C(=O)Oc3cccc(C(F)(F)F)c3)c3ccccc3c2=O)c1	-26.1%
CCOc1ccc(N(CC(=O)NC2CCCCC2)S(=O)(=O)c2ccc(C)cc2)cc1	1.5%

New compounds follow
mol	GCN5L2 inh
CC(=O)c1cccc(N(C(=O)c2ccco2)C(C(=O)NC2CCCC2)c2ccccc2F)c1 (centres undefined)	-6.5%
O=C(NCC1CCCO1)c1ccc(S(=O)(=O)Nc2ccc(F)cc2)cc1 (centres undefined)	-6.7%
CNC(=S)NNC(=O)c1sc2cc(C(F)(F)F)cnc2c1-c1cccnc1	-5.0%
CSC1=NC(C)(C)CC2(C)Nc3ccccc3N12 (centres undefined)	-4.8%
COc1ccc(S(=O)(=O)n2cccc2)cc1OC	-9.2%
O=C(NCc1ccc(Cl)cc1)c1ccc(N2CCCC2=O)cc1	-4.4%
CC1CCN(c2nc3ccc(C(=O)N4CCN(c5ccccc5)CC4)cc3s2)CC1	-2.6%
Cc1cc(C)c(NC(=O)CN2C(=O)NC3(CCCCC3)C2=O)c(C)c1	-4.6%
N/C(CS(=O)(=O)c1ccccc1)=N\OC(=O)c1ccc(F)cc1	-2.4%
O=C(NC1CCCCCCC1)c1cccs1	-12.0%
Cc1c(O)c2c(=O)n(-c3ccccc3)c(-c3ccccc3)cc2oc1=O	3.1%
COc1ccc(CN(CC2CCCO2)S(=O)(=O)c2ccc(-n3cnnn3)c(OC)c2)cc1 (centres undefined)	-8.3%
COc1ccc(C2NC(=O)NC(O)(C(F)(F)F)C2C(=O)c2ccc(F)cc2)cc1 (centres undefined)	-10.9%
O=C(O)c1ccc(C2Nc3ccccc3-c3nnc(SCc4ccc(Cl)cc4)nc3O2)cc1 (centres undefined)	-1.6%
O=C(NCCCN1CCN(c2ccc(F)cc2)CC1)c1cccc(N2CCCC2=O)c1	0.9%
CC(C)CCNS(=O)(=O)c1ccc(-c2ccc(S(=O)(=O)NCCC(C)C)cc2)cc1	-6.8%
O=C(N/N=C/c1ccco1)C12CC3CC(CC(C3)C1)C2	-8.3%
CC1(O)CC(=O)N(c2ccccc2)O1 (centres undefined)	-3.7%
O=C(Cn1c(=O)oc2cc(S(=O)(=O)N3CCc4ccccc43)ccc21)NC1CCCC1	-7.4%
CN(CC(=O)NCC(c1ccccc1)N1CCCC1)S(=O)(=O)c1ccc(Cl)cc1 (centres undefined)	-2.0%

In the list so far, 8 have a furan ring, fused or not.
mol	GCN5L2 inh
O=S(=O)(NCc1ccco1)c1ccc(S(=O)(=O)N2CCCC2)cc1	u
CC(C)(C)c1ccc(OCc2ccc(C(=O)Nc3cccnc3)o2)cc1	-10.0%
Cc1ccc(C(CC(=O)c2ccco2)SCCO)cc1 (centres undefined)	u
CCOc1ccc(NC(=O)c2cc3c(C)nc4ccccc4c3o2)cc1	-7.7%
Cc1ccc(OCCNC(=O)C(=O)NCc2ccco2)cc1	-2.6%
O=C(c1ccc(Cl)cc1)c1oc2ccccc2c1CS(=O)c1ccc(Cl)cc1 (centres undefined)	21.3%
CC(=O)c1cccc(N(C(=O)c2ccco2)C(C(=O)NC2CCCC2)c2ccccc2F)c1 (centres undefined)	-6.5%
O=C(N/N=C/c1ccco1)C12CC3CC(CC(C3)C1)C2	-8.3%

(cont.)
mol	GCN5L2 inh
CCOCc1c(C(=O)N2CCN(Cc3ccc(Br)s3)CC2)oc2ccccc12	-3.1%
NCCCC[C@H]1CNC(=O)C(=O)N1CCc1cccc2ccccc12	1.9%
CCC(C)(C#CCN1CCCCC1)OC(C)=O (centres undefined)	2.7%
Cc1nc2ccc(C(=O)Nc3ccccc3Cl)cc2s1	-8.7%
O=C(Nc1ccc(CSc2ccccc2)cc1)c1ccco1	-19.9%
CCc1ccc(CN(Cc2ccco2)c2cnc(S(C)(=O)=O)nc2C(=O)Nc2ccc(C)c(Cl)c2)cc1	-13.9%
CCn1c(CN2CCOCC2)nnc1SCC(=O)Nc1ccc(C(C)=O)cc1	0.1%
CCN(CC)S(=O)(=O)c1ccc(C(=O)Nc2cc(C)cc(C)c2)cc1	-30.2%
O=C(CSc1nnnn1-c1ccccc1)NCCCN1CCCC1=O	1.5%
Cc1ccc(C)c2nc3sc(C(=O)N4CCCc5ccccc54)c(N)c3cc12	-12.7%
COc1ccc(-c2noc(CCC(=O)NCCCN3CCC(C)CC3)n2)cc1	-6.6%
CCN(CC(=O)Nc1ccccc1C(F)(F)F)C(=O)c1ccc(N2C(=O)CCC2=O)cc1	-8.2%
Cn1ccc(C(=O)Nc2sc3c(c2C(N)=O)CCCCC3)n1	-3.7%
Cc1ccc(S(=O)(=O)N2CCC(C(=O)NC3CCCCC3C)CC2)cc1 (centres undefined)	-0.1%
O=C1CC2C(=O)NCCN2C(=NC(=O)c2ccc(Cl)cc2)N1 (centres undefined)	-4.1%
O=C(COC(=O)CC1CCCC1)Nc1ccccc1[N+](=O)[O-]	-4.8%
COc1ccc(CNC(=O)c2n[nH]c3ccccc23)cc1OC	-0.6%
COc1ccc2c(c1)CN(C)S(=O)(=O)c1ccccc1-2	-1.3%
COC(=O)CSc1nnc(SCc2ccc(Cl)cc2)s1	-1.5%
Cc1ccc(NC(=O)C2CCN(C(=O)NC3CCCCC3)CC2)cc1	0.8%
O=C(Nc1nnc(-c2cccc(F)c2)s1)Nc1ccccc1F	-1.3%
Cc1cc(=O)oc2cc(OCC(=O)N3CCN(c4ccc(F)cc4)CC3)ccc12	-6.8%
COc1ccc(N2CCCC2)c(NC(=O)COc2ccccc2)c1	-12.7%
